High-throughput results: PubChem BioAssay, Broad Institute
NOMO-1 viab – STK33 inhibitor candidate reducing NOMO-1 cell viability. NOMO-1 AML viability, CellTiter-Glo luminescence, 72 h. inhibition, % (test concentration not listed). 7.5% of 37,000 active. AID 2330;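 active means most replicates above 80%; inconclusive means exactly half above 80%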;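 further: wells of about 30 µL received 25 nL stock; 0% = median of vehicle wells and 100% = reference inhibitor level; the first replicate is given; inactives centre near 10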
Active calls of the source: *; ? = inconclusive. Not all compounds are listed (hit frequency here may not be typical).

SMILES	NOMO-1 viab
C[C@@H]1CCCCO[C@@H](CN(C)C(=O)Nc2ccc(F)cc2)[C@@H](C)CN([C@H](C)CO)C(=O)c2cc(N(C)C)ccc2O1	21
Cc1cc2ncc(C(=O)/C=C/N(C)C)c(C)n2n1	10
COc1ccc(N=Cc2c(O)ccc3oc4c(c23)CCCC4)cc1	99*
C[C@@H]1CCCCO[C@@H](CN(C)Cc2ccccc2)[C@@H](C)CN([C@H](C)CO)C(=O)c2cc(NC(=O)c3ccncc3)ccc2O1	2
Cc1ccc(S(=O)(=O)N(C)C[C@@H]2Oc3ccc(NC(=O)Nc4cccc5ccccc45)cc3CC(=O)N([C@@H](C)CO)C[C@@H]2C)cc1	70
Cc1ccc(S(=O)(=O)Nc2ccc3c(c2)C(=O)N([C@H](C)CO)C[C@H](C)[C@@H](CN(C)C)OCCCC[C@@H](C)O3)cc1	-10
C[C@@H]1CN([C@@H](C)CO)C(=O)c2cccc(NC(=O)c3cnccn3)c2O[C@H]1CN(C)CC1CCCCC1	3
C[C@@H]1O[C@@H](O[C@H]2[C@@H]3C=CO[C@@H](O[C@@H]4O[C@H](CO)[C@@H](O)[C@H](O)[C@H]4O)[C@@H]3[C@@]3(CO)O[C@@H]23)[C@H](OC(=O)/C=C/c2ccccc2)[C@H](OC(=O)/C=C/c2ccccc2)[C@H]1O	0
COC(=O)c1ccc(NC(=O)CN(C)S(=O)(=O)c2ccc3ccccc3c2)cc1	-19
O=C1C(SCCO)=C(SCCO)C(=O)c2ccccc21	114*
C[C@H]1CN([C@@H](C)CO)C(=O)c2cccc(NS(=O)(=O)c3ccccc3)c2O[C@@H]1CN(C)S(=O)(=O)c1ccc(F)cc1	25
O=C(CSCc1ccccc1Cl)Nc1c[nH]c(=O)[nH]c1=O	-3
CC(=O)Nc1ccc(NC(=O)CNS(=O)(=O)c2c(C)cc(C)cc2C)cc1	-3
C[C@H]1CN([C@@H](C)CO)C(=O)c2cc(NS(C)(=O)=O)ccc2O[C@H]1CN(C)Cc1ccccc1	-10
C[C@H]1CN([C@@H](C)CO)C(=O)c2cc(NS(=O)(=O)c3ccccc3)ccc2O[C@@H]1CN(C)C	-2
COc1ccc(S(=O)(=O)N(C)C[C@H]2Oc3ccc(NC(=O)Cc4cn(C)c5ccccc45)cc3CC(=O)N([C@@H](C)CO)C[C@@H]2C)cc1	12
O=C(O)C1CCCCC1C(=O)Nc1cccc2ccccc12 (centres undefined)	0
Cc1cc2nc(-c3ccc(NC(=O)COc4ccc([N+](=O)[O-])cc4)cc3)oc2cc1C	27
CCOc1nc(NCCO)nc(Nc2ccc(OC)cc2OC)n1	-24
Cc1noc(C)c1S(=O)(=O)Nc1ccc2c(c1)C(=O)N([C@H](C)CO)C[C@H](C)[C@@H](CN(C)S(=O)(=O)c1cn(C)cn1)O2	20
CNC[C@H]1Oc2ccc(NC(=O)NC(C)C)cc2C(=O)N([C@H](C)CO)C[C@H]1C	-1
Cc1noc(C)c1NC(=O)Nc1ccc2c(c1)CC(=O)N([C@H](C)CO)C[C@@H](C)[C@@H](CN(C)C(=O)NC(C)C)O2	-3
O=C(O)CCC(=O)Nc1ccc2c(c1)C(=O)NC2=O	32
COc1ccc(CN(C)C[C@H]2Oc3ccc(NS(=O)(=O)c4cccs4)cc3CC(=O)N([C@H](C)CO)C[C@H]2C)cc1	2
O=C(CSc1ccccc1C(=O)O)Nc1ccnc2ccccc12	-5
C[C@H](CO)N1C[C@H](C)[C@@H](CN(C)Cc2ccccc2)Oc2c(NS(=O)(=O)c3ccccc3)cccc2C1=O	11
COC(=O)c1ccc(OCC(=O)Nc2ccc(C(C)=O)cc2)cc1	24
COc1ccc(NC(=O)CSc2nnc(N)s2)c(OC)c1	-11
Cn1c(SCC(=O)c2ccc(F)cc2)nnc1-c1cccc([N+](=O)[O-])c1	1
COC(=O)c1c(-c2ccccc2)csc1NC(=O)c1cc2cccc(OC)c2oc1=O	26
CC(C)Nc1nc(Oc2ccc(=O)[nH]n2)nc(N(C)C)n1	8
C[C@@H]1CCCCO[C@@H](CN(C)S(=O)(=O)c2ccc(F)cc2)[C@@H](C)CN([C@H](C)CO)C(=O)c2cc(NS(=O)(=O)c3cccs3)ccc2O1	48
CCOC(=O)c1ccccc1NC(=O)CSc1nc2ccccc2[nH]1	18
C[C@H]1CN([C@@H](C)CO)C(=O)Cc2cc(N(C)C)ccc2O[C@H]1CN(C)C(=O)Nc1ccc(F)cc1	-8
COc1ccc(S(=O)(=O)N(C)C[C@@H]2Oc3ccc(N(C)C)cc3C(=O)N([C@H](C)CO)C[C@@H]2C)cc1	14
C[C@@H]1CN([C@@H](C)CO)C(=O)c2cccc(NC(=O)C3CC3)c2O[C@H]1CN(C)Cc1ccccc1	38
COc1ccc(NC(=O)Nc2ccc3c(c2)C(=O)N([C@H](C)CO)C[C@@H](C)[C@H](CN(C)C(=O)Nc2ccc(F)cc2)O3)cc1	11
C[C@@H]1CN([C@H](C)CO)C(=O)Cc2cc(NC(=O)CCC(F)(F)F)ccc2O[C@@H]1CN(C)C(=O)Nc1cccc2ccccc12	23
O=C(NCc1ccccn1)C1CC(c2cccc(Br)c2)=NO1 (centres undefined)	-2
O=C(c1ccccc1)c1cnn(-c2ccc(Cl)cc2)n1	18

Ordered by length of the SMILES (descending): six of the compounds above
SMILES	NOMO-1 viab
C[C@@H]1CN([C@H](C)CO)C(=O)Cc2cc(NC(=O)CCC(F)(F)F)ccc2O[C@@H]1CN(C)C(=O)Nc1cccc2ccccc12	23
C[C@H](CO)N1C[C@H](C)[C@@H](CN(C)Cc2ccccc2)Oc2c(NS(=O)(=O)c3ccccc3)cccc2C1=O	11
CNC[C@H]1Oc2ccc(NC(=O)NC(C)C)cc2C(=O)N([C@H](C)CO)C[C@H]1C	-1
Cn1c(SCC(=O)c2ccc(F)cc2)nnc1-c1cccc([N+](=O)[O-])c1	1
O=C(NCc1ccccn1)C1CC(c2cccc(Br)c2)=NO1 (centres undefined)	-2
O=C(c1ccccc1)c1cnn(-c2ccc(Cl)cc2)n1	18

Filtered by structure: the compounds so far containing an aryl thioether with sulfur outside any ring.
SMILES	NOMO-1 viab
O=C(CSc1ccccc1C(=O)O)Nc1ccnc2ccccc12	-5
COc1ccc(NC(=O)CSc2nnc(N)s2)c(OC)c1	-11
Cn1c(SCC(=O)c2ccc(F)cc2)nnc1-c1cccc([N+](=O)[O-])c1	1
CCOC(=O)c1ccccc1NC(=O)CSc1nc2ccccc2[nH]1	18

Further results follow.
SMILES	NOMO-1 viab
C[C@@H]1CN([C@H](C)CO)C(=O)Cc2cc(NS(=O)(=O)c3cccs3)ccc2O[C@@H]1CN(C)S(=O)(=O)c1ccc(Cl)cc1	20
N#CCCN(CCC#N)C(=O)c1ccccc1Oc1ccccc1	7
C[C@H](CO)N1C[C@H](C)[C@H](CN(C)Cc2ccc(Oc3ccccc3)cc2)Oc2ccc(NC(=O)Cc3ccccc3)cc2CC1=O	116*
Cc1cccc(C)c1NC(=O)CSc1nc(-c2ccccc2)c(-c2ccccc2)[nH]1	16
O=C1c2cc(O)cc(O)c2C(=O)c2c1cc(O)c(C(CO)CCO)c2O (centres undefined)	26
Cc1ccc2cc3c(nc2c1)N(c1ccc(C(=O)NCc2ccco2)cc1)CC3	116*
CC(=O)OC[C@H]1O[C@@H](Oc2cc(OC(C)=O)c3c(=O)cc(-c4ccc(OC(C)=O)cc4)oc3c2)[C@H](OC(C)=O)[C@@H](OC(C)=O)[C@@H]1OC(C)=O	63
COc1ccc(CCNC(=O)C(=O)Nc2ccccc2C)cc1OC	-8
COc1ccc(CN(C)C[C@H]2Oc3ccc(NC(=O)C4CC4)cc3CC(=O)N([C@H](C)CO)C[C@H]2C)cc1	-7
Cc1cccc(Nc2nc(N)nc(CSc3nccn3C)n2)c1	-7
C[C@@H]1CN([C@@H](C)CO)C(=O)c2cccc(NC(=O)Nc3cccc4ccccc34)c2O[C@H]1CN(C)C(=O)NC1CCCCC1	44
COc1ccc(NC(=O)Nc2ccc3c(c2)CC(=O)N([C@H](C)CO)C[C@@H](C)[C@@H](CN(C)C(=O)NC2CCCCC2)O3)cc1	25
CC1=C(C#N)C(C(F)(F)F)(C(F)(F)F)N=C(C2CCCCC2)N1	141*
C[C@@H]1CN([C@H](C)CO)C(=O)c2cccc(NC(=O)c3cnccn3)c2O[C@H]1CN(C)Cc1ccccc1	?
COC(=O)c1cc(NC(=O)CN(c2cc(Cl)c(Cl)cc2Cl)S(C)(=O)=O)ccc1Cl	133*
C[C@H]1CN([C@@H](C)CO)C(=O)c2cc(NC(=O)Nc3ccc(F)cc3)ccc2O[C@H]1CN(C)C(=O)Nc1ccc(C(F)(F)F)cc1	41
COc1cc2c(cc1NC(=O)COc1cccc(C)c1C)oc1ccccc12	15
CC(C)NC(=O)N(C)C[C@@H]1Oc2ccc(NC(=O)Nc3ccc(C(F)(F)F)cc3)cc2C(=O)N([C@@H](C)CO)C[C@@H]1C	20
Cc1cc(C)c(C)c(Oc2coc3cc(OCC(=O)Nc4ccccc4Cl)ccc3c2=O)c1	9
COc1ccc(OC)c(-n2c(CNC3CCN(Cc4ccccc4)CC3)nc3ccccc3c2=O)c1	90*
CNC[C@H]1Oc2ccc(NS(=O)(=O)c3ccccc3)cc2C(=O)N([C@H](C)CO)C[C@H]1C	50
C=CCn1c2ccccc2c2nn(C)c(=S)nc21	11
CCOc1cccc2cc(-c3nc4ccccc4s3)c(=O)oc12	39
Cc1ccc2c(c1)C(c1ccccc1)CC(C)N2S(=O)(=O)c1cccc(Cl)c1 (centres undefined)	-14
C[C@@H]1CN([C@@H](C)CO)C(=O)c2cc(NS(=O)(=O)c3cccs3)ccc2O[C@@H]1CN(C)CC1CCCCC1	19
Cc1noc(C)c1S(=O)(=O)N(C)C[C@H]1OCCCC[C@@H](C)Oc2ccc(NC(=O)Nc3ccc(F)cc3)cc2C(=O)N([C@H](C)CO)C[C@@H]1C	19
O=C(CSc1nnnn1-c1ccccc1F)Nc1ccc(Br)cc1	9
Cc1noc(C)c1NC(=O)Nc1cccc2c1O[C@H](CN(C)Cc1ccc(C(=O)O)cc1)[C@H](C)CN([C@@H](C)CO)C2=O	5
O=C(Nc1nc(-c2ccccc2)nc2c1C(=O)CCC2)c1ccccc1	-8
O=C(O)CCn1c(SCCOc2ccccc2)nc2ccccc21	-18
C[C@H]1CN([C@@H](C)CO)C(=O)Cc2cc(NC(=O)Nc3ccccc3)ccc2O[C@H]1CN(C)C(=O)Nc1cccc2ccccc12	-7
C[C@@H]1CCCCO[C@@H](CN(C)C(=O)Nc2cccc3ccccc23)[C@@H](C)CN([C@H](C)CO)C(=O)c2cc(NS(=O)(=O)c3cn(C)cn3)ccc2O1	31
C[C@@H]1CN([C@@H](C)CO)C(=O)c2cccc(NC(=O)C3CCOCC3)c2O[C@H]1CN(C)Cc1ccc(Cl)c(Cl)c1	24
Cc1ccc(-c2nc3ccccc3[nH]2)cc1NC(=O)C(C)Oc1ccc(Cl)cc1Cl (centres undefined)	72
Cc1ccc(S(=O)(=O)Nc2ccc3c(c2)C(=O)N([C@@H](C)CO)C[C@@H](C)[C@H](CN(C)C(=O)Nc2ccccc2)O3)cc1	-9
COc1ccc(S(=O)(=O)N(C)C[C@H]2Oc3ccc(N(C)C)cc3CC(=O)N([C@@H](C)CO)C[C@H]2C)cc1	14
COc1ccc(CN(C)C[C@@H]2Oc3ccc(NC(=O)Nc4ccc(F)cc4)cc3C(=O)N([C@H](C)CO)C[C@@H]2C)cc1	-8
COc1ccc(S(=O)(=O)Nc2ccc3c(c2)C(=O)N([C@H](C)CO)C[C@H](C)[C@H](CN(C)C(=O)Nc2ccc4c(c2)OCO4)O3)cc1	-10
COc1ccc(S(=O)(=O)Nc2ccc3c(c2)CC(=O)N([C@@H](C)CO)C[C@H](C)[C@@H](CN(C)S(=O)(=O)c2ccc(OC)cc2)O3)cc1	9
C[C@H]1CN([C@@H](C)CO)C(=O)c2cc(NC(=O)c3ccncc3)ccc2O[C@@H]1CN(C)C(=O)Nc1ccccc1	0
C[C@H](CO)N1C[C@H](C)[C@H](CN(C)S(=O)(=O)c2ccc(F)cc2)Oc2ccc(NC(=O)c3ccncc3)cc2CC1=O	18
Cc1cc(C(=O)Nc2cccc3c2O[C@H](CN(C)C(=O)Nc2ccc(C(F)(F)F)cc2)[C@H](C)CN([C@H](C)CO)C3=O)n(C)n1	25
Cc1ccc2c(C)c(C(=O)Nc3sc4c(c3C(=O)NCC3CCCO3)CCC4)oc2c1 (centres undefined)	35
C[C@H](CO)N1C[C@H](C)[C@H](CN(C)Cc2ccc(Cl)c(Cl)c2)Oc2ccc(NS(=O)(=O)c3cccs3)cc2C1=O	6
CC1=COC=C(C=NCc2ccccc2)N1c1ccccc1	17
C[C@@H]1CN([C@@H](C)CO)C(=O)c2cc(NC(=O)Nc3ccc(C(F)(F)F)cc3)ccc2O[C@@H]1CN(C)CC1CCCCC1	118*
COc1ccc(C)cc1NC(=O)CSc1nnc(-c2ccc(C(C)(C)C)cc2)n1C	28
COc1ccc(NC(=O)N(C)C[C@H]2Oc3ccc(NC(=O)Nc4ccccc4)cc3CC(=O)N([C@H](C)CO)C[C@H]2C)cc1	26
CC(C)(C)NC(=O)CSc1nnc(-c2ccco2)n1-c1ccccc1	35
NC(=O)C1CCN(C(=O)CSc2nc(-c3ccccc3)cc(=O)[nH]2)CC1	7
COc1ccc(NC(=O)CSc2nc3sc(C)c(C)c3c(=O)n2-c2ccccc2)c([N+](=O)[O-])c1	51
Cc1ccc(S(=O)(=O)N(C)c2ccc(C(=O)Nc3cccc(N(C)S(C)(=O)=O)c3)cc2)cc1	35
O=C(COc1ccccc1[N+](=O)[O-])Nc1ccc2oc(-c3ccccc3Br)nc2c1	28
CC(C)NC(=O)N(C)C[C@H]1Oc2ccc(NS(=O)(=O)c3ccc(Cl)cc3)cc2CC(=O)N([C@H](C)CO)C[C@H]1C	10
N#Cc1ccc2nc(C(O)C(O)c3nc4ccc(C#N)cc4[nH]3)[nH]c2c1 (centres undefined)	-3
CN(C(=O)c1cn(C)c(=O)cc1C(F)(F)F)c1ccc(Cl)c(Cl)c1	13
CCc1cccc(C)c1NC(=O)CSc1nnc(-c2cccnc2)n1C	3
